Screens (PubChem)
B2AR ag: activates human beta-2 adrenergic receptor causing internalization | P07550 | Am2.2-beta2AR cells, FAP receptor internalization, flow cytometry; reference of the scale not given here | 340,000 tested, 0.43% active | response, % (test concentration not listed);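 active = response above a set limit, near 3 SD of response in nonfluorescent compounds, cut at about 42% in these data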;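 note: stock transfer was 100 nL into about 11 µL; a reference agonist was the positive control; negative values mostly stem from fluorescent compounds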
Target sequence (P07550 whole entry, looked up): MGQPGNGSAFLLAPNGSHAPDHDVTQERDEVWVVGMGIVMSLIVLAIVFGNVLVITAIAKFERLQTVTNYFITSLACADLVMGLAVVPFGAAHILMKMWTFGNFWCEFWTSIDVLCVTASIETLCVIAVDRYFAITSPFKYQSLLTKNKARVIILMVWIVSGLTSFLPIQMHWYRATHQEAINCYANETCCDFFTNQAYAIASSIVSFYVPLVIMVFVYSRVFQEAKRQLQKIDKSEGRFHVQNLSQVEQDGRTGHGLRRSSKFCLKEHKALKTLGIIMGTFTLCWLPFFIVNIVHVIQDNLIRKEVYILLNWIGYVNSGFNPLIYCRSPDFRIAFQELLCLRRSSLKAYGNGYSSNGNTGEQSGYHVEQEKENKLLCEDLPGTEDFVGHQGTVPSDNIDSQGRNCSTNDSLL
LANA-H2B inh: blocks KSHV LANA binding to histone H2A/H2B; 320,000 tested, 0.6% active; inhibition, % (test concentration not listed); AID 2629; cell-free LANA-H2A/H2B peptide, fluorescence polarization; Q9QR71; in the data active = inhibition mostly above about 10%, no sharp cut-off; inactive = mostly below about 6.7%;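 note: stock transfer was 7.5 nL into about 10 µL; 0% = median of vehicle wells and 100% = median of positive control wells; one replicate is shown; the record names a cut of 25% in any replicate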
ALR H2O2 inh: blocks human ALR sulfhydryl oxidase activity; P55789; purified ALR, DTT oxidation, H2O2 HRP-luminol luminescence; inhibition, % (concentration not given with the values); 290,000 tested, 3.8% active; AID 485317;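 active = mean and each replicate at 75% or more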;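 note: stock transfer was 7.5 nL into about 7.5 µL; 0% = neutral wells and 100% = wells with inactivated enzyme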
HNF4A DNA FP: change in binding of human HNF4 alpha to DNA. AID 1224865. 360,000 tested, 0.3% active. HNF4a-FITC DNA binding, fluorescence polarization, 1 h. P41235. activity change, % at 10 µM; in the data active = activity change above about 30%, passing the limit was not always enough;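 note: controls were the assay level and a saturating level of protein; the project sought stronger binding though the title names inhibitors; some compounds called inactive have numbers as strong as hits; positive values seem to mean higher polarization but the record does not say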
FGF22 binding: shifts melting point of recombinant human FGF22. 340,000 tested, 1.5% active. calls only at 9.99 µM. Q9HCT0. recombinant FGF22 thermal shift, SYPRO orange fluorescence; percent of sucrose octasulfate shift, DMSO zero;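 active = melting point raised past a set limit in the mean and every replicate; three in four hits are not shown here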
Target sequence (Q9HCT0 whole entry, looked up): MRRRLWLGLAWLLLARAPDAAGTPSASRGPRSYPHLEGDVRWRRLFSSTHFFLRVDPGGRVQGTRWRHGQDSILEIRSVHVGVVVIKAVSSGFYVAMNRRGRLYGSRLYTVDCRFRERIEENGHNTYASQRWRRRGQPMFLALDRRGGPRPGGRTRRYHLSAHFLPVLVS
E coli growth: E. coli growth inhibition; 330,000 tested, 0.21% active; Escherichia coli growth, OD600, 23 h; stronger effect = lower value; OD600 absorbance (concentration not given with the values);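 active = OD600 absorbance below the run mean of sample wells minus 3.6 SD, in any replicate, cut at about 0.56 in these data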;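 note: stock transfer was 300 nL into about 60 µL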
UCH37 inh: blocks the human deubiquitinase UCH37 | 330,000 tested, 0.33% active | Q9Y5K5 | purified proteasome/UCH37, Ub-AMC cleavage fluorescence | inhibition, % (test concentration not listed);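 active = mean of two replicates above 20%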;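 note: 0% = compound-free wells with enzyme and 100% = wells lacking proteasome; stock transfer was 100 nL into about 20 µL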
Target sequence (Q9Y5K5 whole entry, looked up): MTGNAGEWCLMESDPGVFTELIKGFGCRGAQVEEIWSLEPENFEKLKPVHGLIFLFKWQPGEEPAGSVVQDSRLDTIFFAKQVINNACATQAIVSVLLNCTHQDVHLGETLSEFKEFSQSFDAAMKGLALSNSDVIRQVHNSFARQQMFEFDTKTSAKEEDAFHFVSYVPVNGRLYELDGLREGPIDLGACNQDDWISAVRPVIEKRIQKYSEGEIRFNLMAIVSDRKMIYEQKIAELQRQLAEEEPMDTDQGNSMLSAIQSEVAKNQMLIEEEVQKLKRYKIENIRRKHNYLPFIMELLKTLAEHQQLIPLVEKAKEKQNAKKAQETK
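assay system = human UCH37 enzyme supplied as purified proteasome complex | amount = proteasome at 0.15 nM in the dispensed enzyme solution | schedule = 30 min compound-proteasome preincubation then 25 min substrate reaction, room temperature | measured by = fluorescence, ex 355 nm, em 460 nm | benchmarks = no-proteasome wells (full inhibition) and compound-free wells (no inhibition)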
Active calls of the source: *; i = inactive; / = no result given; & = joins results of further samples. Only part of the results is shown (hit frequency here may not be typical).

SMILES	B2AR ag	LANA-H2B inh	ALR H2O2 inh	HNF4A DNA FP	FGF22 binding	E coli growth	UCH37 inh
CC(=O)Nc1ccc(S(=O)(=O)NC2CC(=O)N(c3cccc(F)c3)C2)cc1 (centres undefined)	-5.4	1.9	-2.5	-1.9	i	0.677	-0.7
COc1ccc(CCNC(=O)C23CN(Cc4ccccc4)CC2C(c2ccc([N+](=O)[O-])cc2)=NO3)cc1 (centres undefined)	-6.1	4.3	-2.3	-2.5	i	0.71	3.8
c1ccc2c(c1)CCN(c1ncnc3c1[nH]c1ccccc13)C2	12.3	0.7	40.0	-0.7	/	0.636	-18.3
COc1ccc(/C=C2\C(=O)c3ccccc3OC2c2ccccc2)cc1 (centres undefined)	-10.3	-6.1	-16.7	0.4	i	0.705	5.9
O=C1CSC(c2ccccn2)N1c1ccc(Cl)c(Cl)c1 (centres undefined)	1.5	-0.2	70.4	-4.2	/	0.679	5.8
CC(=O)c1ccc(OCC(=O)N(C)CC(=O)Nc2ccc(N3CCOCC3)cc2)cc1	8.5	/	18.4	-0.6	i	0.67	2.3
O=C(Nc1ccc(-c2cn3c(n2)SCC3)cc1)c1ccc2c(c1)OCO2	5.2	-2.0	13.8	5.5	i	0.706	-8.9
Cc1cc(NS(=O)(=O)c2ccc(NC(=O)Cc3cccs3)cc2)no1	7.2	-1.8	/	-8.1	i	0.666	4.7
COc1ccccc1OCC(=O)Nc1ccc(C(N)=O)cc1	-1.0	-5.0	1.1	-1.6	/	0.633	5.3
NNC(=O)c1cnn(-c2ccccc2)c1C(F)(F)F	-6.2	-2.1	/	2.0	i	0.685	2.3
COc1cccc(N2CCN(C(=O)CCNS(=O)(=O)c3ccc(F)c(F)c3)CC2)c1	-7.0	0.3	/	1.4	i	0.667	1.7
COc1ccc(S(=O)(=O)N2CCSC2c2ccc(N)cc2)cc1 (centres undefined)	-1.6	2.0	-4.5	1.4	/	0.716	0.8
Cc1cccc(-n2c(O)c(C=NC3CCS(=O)(=O)C3)c3ccccc3c2=O)c1 (centres undefined)	-11.9	3.4	/	-1.4	/	0.745	8.8
COc1ccc(CCNC(=O)C2CC(O)CN2S(=O)(=O)c2ccc(Cl)cc2)cc1OC (centres undefined)	-0.2	0.1	-0.8	-3.1	i	0.651	6.0
O=C(NCCc1ccccc1)/C(=C\c1ccc([N+](=O)[O-])cc1)NC(=O)c1ccc(Br)cc1	-3.6	0.6	-27.4	-1.6	i	/	/
COc1ccc(CN(C)CC2CCCN(CCc3ccc(F)cc3)C2)cc1OC (centres undefined)	-2.5	6.6	-4.8	2.1	i	0.687	6.6
O=C(Nc1cccc(C(=O)N2CCCCC2)c1)C1CCC1	-6.8	/	/	2.1	i	/	/
CCCCNS(=O)(=O)c1ccc2nc(SCC(=O)Nc3ccccc3)[nH]c2c1	11.7	-4.9	45.4	-1.1	i	0.699	2.8
Cc1nc2ccccn2c1C(=O)NCC(C)C	-4.3	3.9	1.0	3.9	i	0.674	3.8
O=C1/C(=C/c2ccc(F)cc2)Oc2cc(OC(=O)N3CCOCC3)ccc21	0.0	6.8	-6.3	4.9	i	0.645	-2.2
O=C(/C=C/c1ccc([N+](=O)[O-])cc1)NCC1CCCO1 (centres undefined)	-6.0	6.4	-9.3	-0.6	/	/	5.5
Cc1ccc(S(=O)(=O)N2CCN(C(=O)CN3CCCCC3)C2C(C)C)cc1 (centres undefined)	-0.6	-3.6	-1.3	1.9	i	0.748	-1.0
CCOC(=O)N1CCN(C(=O)c2ccc(CS(=O)(=O)c3ccccc3OC)o2)CC1	-4.8	1.2	-10.4	-0.3	/	0.656	6.3
COc1cc(C2NC(=O)NC(O)(C(F)(F)F)C2C(C)=O)cc(OC)c1OC (centres undefined)	4.3	-0.1	-5.4	-1.8	/	0.682	1.0
CCOC(=O)c1cc(-c2ccccc2)sc1NC(=O)C(C)OC(=O)c1ccncc1 (centres undefined)	-20.1	20.6	0.4	2.7	i	0.673	-2.1
CC(C)c1ccc(Nc2nc(NCc3ccco3)nc(N3CCOCC3)n2)cc1	13.0	2.0	-4.1	-2.5	/	0.798	2.4
Cc1ccc(F)cc1NC(=O)C1CC(=O)N(CCc2ccccc2)C1 (centres undefined)	-5.5	-4.1	-6.4	6.5	i	0.61	-1.0
COc1cc(/C=N/N=C(/N)c2nonc2N)cc(Br)c1OCc1cccc(C)c1	6.4	-5.3	-21.6	-3.3	/	/	/
O=C(c1cccc([N+](=O)[O-])c1)N1CCN(C/C=C/c2ccccc2)CC1	-0.1	0.9	/	-1.1	i	0.649	3.4
O=C(CN(Cc1ccccc1F)C(=O)c1ccco1)NCc1ccc(F)cc1	6.3	3.5	3.6	-1.0	/	0.735	-0.3
CN1N=C(C(=O)N2CCCC(N3CCN(c4ccc(F)cc4)CC3)C2)CCC1=O (centres undefined)	5.0	-2.4	33.2	3.4	i	0.746	-1.8
C=CCN(CC=C)C(=O)c1ccc(OC2CCN(S(=O)(=O)N(C)C)CC2)cc1	4.2	9.0	-18.0	-0.2	i	0.618	1.8
CC1Cc2ccccc2N1CC(=O)Nc1cccc(S(N)(=O)=O)c1 (centres undefined)	-0.6	-1.7	-7.8	2.5	i	0.707	1.1
Cc1ccnc(N=Cc2c(O)ccc3oc4c(c23)CCCC4)c1	/	0.5	-48.0	/	/	0.654	2.6
C/C(N)=C(/C#N)C(=O)CSc1nnc(NC(C)C)s1	3.2	3.0	/	-10.0	/	0.712	4.7
CCOC(=O)c1c(NC(=O)COC(=O)C2CC2C)sc(C)c1C (centres undefined)	5.0	-0.8	3.0	-0.5	i	0.683	-0.4
O=C(O)CCC1OC(=O)C(O)=C1c1ccccc1 (centres undefined)	2.2	-0.4	18.6	1.3	i	0.709	3.4
CCCc1cc(N2CCCC2)n2nc(C)c(-c3ccccc3)c2n1	2.3	0.2	-4.3	-1.8	/	0.744	-135.5
O=C(c1cccn(Cc2cccc(Cl)c2)c1=O)N1CCOCC1	4.7	-3.0	-10.5	-1.0	/	0.695	-0.4
O=C(NNC1=C(C(=O)C(F)(F)F)CCC1)c1ccc(Cl)cc1	4.1	-5.6	9.5	-3.9	/	0.588	9.7
COc1cc(C(=O)NNC(=O)C2CC=CCC2C(=O)O)cc(OC)c1OC (centres undefined)	3.6	5.4	/	-0.1	i	0.659	-0.1
COc1ccc(OC)c(NC(=O)CSc2nnc(CCCO)n2-c2ccccc2)c1	1.7	2.8	-8.1	0.4	/	0.714	2.0
CSCC(=O)Nc1nc(-c2ccc3c(c2)OCCO3)cs1	-8.7	2.2	56.1	5.5	i	0.65	5.0
CCO[C@@H]1OC(C(=O)NC2CC2)=C[C@H](C(C)(C)C)[C@H]1CCCO	-3.6	-0.1	19.9	4.5	i	/	0.8
COc1cc2sc3ccc(-c4ccc(CN5CCOCC5)cc4)cc3c(=O)c2cc1OC	38.7	11.7	-3.4	5.7	i	0.675	0.3
CC(C)CCNC(=O)COc1ccc2c3c(c(=O)oc2c1)CCC3	-1.1	-3.5	-4.3	0.5	/	0.732	-25.6
Nc1ccc2c(c1)N1CCN=C1S2	3.2	-0.2	87.8*	-1.5	/	0.64	-2.1
COc1ccc(NC(=O)CCN2CCC(C)CC2)cc1	0.5	1.8	-21.9	-0.4	/	0.645	0.4
COc1ccc(-c2oc3cc(OC)c(O)c(OC)c3c(=O)c2OC)cc1O	8.7	-0.8	100.0*	-0.3	i	0.689	7.8
O=C1C2CCCCC2C(=O)N1c1ccc(S(=O)(=O)Nc2ncccn2)cc1 (centres undefined)	2.5	2.2	/	-1.8	i	0.692	-1.0
O=c1c2[nH]c3ccc(F)cc3c2ncn1CC1CCCO1 (centres undefined)	1.1	-1.6	/	4.7	i	0.67	-14.8
CC(C)(C)CN1CCN(CCCc2ccccc2)C(CCO)C1 (centres undefined)	-13.4	-2.8	/	3.2	i	0.622	-0.2
CCCCCCSc1cccc(-c2nc3ccc(Cl)cn3c2NCCCC)c1	3.9	/	/	-1.7&5.7	i	/	-34.1
Cc1cc(C)c(S(=O)(=O)CCC(C)C)c(=O)[nH]1	7.9	-3.4	-10.2	0.4	i	0.693	-0.4
Cc1ccc(S(=O)(=O)N2CCOCC2)cc1NC(=O)COC(=O)c1ccc2c(c1)OCCO2	-4.4	-0.9	-15.1	-0.4	i	0.703	4.3
O=C(CC1NC2CCCCC2NC1=O)Nc1cccc(C(F)(F)F)c1 (centres undefined)	8.9	-1.1	2.6	4.0	/	0.712	5.3
Cc1ccc(C)c(N(CC(=O)NCc2ccco2)C(=O)CNS(=O)(=O)c2ccccc2)c1	-3.5	-0.1	-2.9	-2.8	i	0.667	0.8
CCOc1ccc(S(=O)(=O)N2CCC(C(=O)N3CCOCC3)CC2)cc1Cl	-0.1	2.5	-8.7	-2.5	i	0.666	-1.7
CCOC(=O)C1CCN(S(=O)(=O)c2c[nH]c(=O)[nH]c2=O)CC1	-0.5	3.9	-2.0	-0.1	i	0.681	2.1
CC(c1ccccc1)n1cc(C(=O)NCc2ccccn2)nn1 (centres undefined)	-10.5	-11.7	-2.9	-1.3	/	0.643	1.7

Reprinted at random: two entries already listed.
SMILES	B2AR ag	LANA-H2B inh	ALR H2O2 inh	HNF4A DNA FP	FGF22 binding	E coli growth	UCH37 inh
CSCC(=O)Nc1nc(-c2ccc3c(c2)OCCO3)cs1	-8.7	2.2	56.1	5.5	i	0.65	5.0
CC(C)CCNC(=O)COc1ccc2c3c(c(=O)oc2c1)CCC3	-1.1	-3.5	-4.3	0.5	/	0.732	-25.6

(more compounds)
SMILES	B2AR ag	LANA-H2B inh	ALR H2O2 inh	HNF4A DNA FP	FGF22 binding	E coli growth	UCH37 inh
Cc1cc(C)n(C)c(=O)c1C#N	-4.1	-2.7	-7.1	-0.3	i	0.748	2.4
CC(C)C(=O)N=c1sc2cc(F)cc(F)c2n1C	-10.7	5.2	-7.9	2.5	i	0.722	2.2
O=C(COc1ccc2c(c1)OCO2)Nc1cccc(F)c1	5.9	11.1	/	-0.5	i	0.632	1.9
COc1cccc(C(=O)Cn2c(=N)n(C)c3ccccc32)c1	-9.6	-1.1	-4.9	-2.2	/	0.625	4.3
C#CCSc1nnc(-c2sc3ccccc3c2Cl)o1	-2.8	5.2	0.2	2.3	/	0.671	-2.7
O=C(Cc1cccs1)NC1CCCC1	4.2	-5.3	-1.8	3.9	i	0.713	3.0
CC(C)[C@H](NC(=O)OC(C)(C)C)c1nnc(S(=O)(=O)Cc2c(F)cccc2Cl)o1	30.3	-0.8	13.9	1.4	i	0.731	4.9
CC(C)(C)OC(=O)N1CCC(C(=O)N2CCCCCC2)CC1	0.0	-4.3	-8.4	-1.4	/	0.694	2.0
CCCNc1c(NC(=O)C2CCC(C)CC2)c(=O)oc2ccccc12 (centres undefined)	-6.3	1.1	-9.3	-1.1	i	0.651	0.7
C[C@H](NC(=O)c1nc[nH]c1C(=O)N1CCN(C(=O)OC(C)(C)C)CC1)C(=O)OCc1ccccc1	-0.2	1.3	-16.3	-2.7	i	0.809	-0.9
Cc1sc(NC(=O)CN(Cc2ccccc2)C(=O)C(C)C)c(C(N)=O)c1C	-6.1	1.3	-7.2	1.5	i	0.719	0.1
CSc1nc(-c2ccccc2)nn1S(=O)(=O)c1ccc(Cl)cc1	-5.9	-3.2	-4.4	-1.4	/	0.67	1.0
CCCCCn1nc(C(=O)N2CCc3ccccc32)c2ccccc2c1=O	-0.9	0.3	/	-3.9	i	0.692	-1.1
N#Cc1ccc(-c2ccco2)nc1SCc1ccccc1	3.5	-0.5	/	5.4	/	0.748	-25.5
O=C(NC(=S)N(Cc1ccccc1)c1ccccn1)C1CC1	3.1	-0.8	98.7*	0.2	i	0.687	3.8
Cc1nn(-c2ccccc2)c(C)c1/C=N/Nc1nc2ccccc2[nH]1	5.8	-11.9	31.6	-4.9	i	/	/
O=C1N[C@@H](Cc2c[nH]c3ccccc23)COC(=O)[C@H](Cc2ccc(F)cc2)C/C=C\C[C@@H]1CC(=O)N(CCO)Cc1ccccc1	-1.6	-2.4	-0.3	-0.7	i	/	-0.1
O=C(/C=C/c1c(F)cccc1Cl)c1ccc(O)cc1	12.3	-1.2	5.1	2.8	/	0.664	2.5
CC(=O)c1c(C)[nH]c(C(=O)OCC(=O)Nc2nnc(-c3ccccc3)o2)c1C	8.9	-2.6	/	0.1	i	0.676	0.5
